Rango dissoc inh: inhibitors of RanGTP-induced Rango-importin beta complex dissociation | O95149+P62826 | Biochemical FRET Rango-importin beta, RanGTP-induced dissociation | Potency, µM (titrated, usually from 46.1 µM), without a hit: top-dose activity change, negative = inhibition | 0.071% of 340,000 active; active means falling FRET ratio curve, often poorly fitted, with flat reads before Ran was added; inconclusive means other falling curves, or compound fluorescence or quenching; inactive means flat or rising ratio curve;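 also: potency is read from the fitted curve at half-maximal effect; % of control where 0% means no effect; nearly all actives have a fitted effect of over 45% in size; -100% = wells without RanGTP and RCC1; the record marks most hits as doubtful in a second field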
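FRET read at 45 min, room temperature: inhibitors block the CFP/YFP signal rise when RanGTP (0.6 uM Ran, 2 mM GTP, 0.2 uM RCC1) frees Rango (0.1 uM) from importin beta (0.25 uM). Pre-read after 5 min compound exposure flags interference.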
GLA inh pH 4.5: alpha-galactosidase A (human) inhibition, pH 4.5 | P06280 | purified enzyme, 4-MU-alpha-Gal fluorescence, pH 4.5 | 230,000 tested, under 10 active | activity change, negative = inhibition, % at 105 µM; inconclusive = small, poorly fitted or top-dose-only inhibition, or a rising curve; inactive = flat fitted curve, though single readings scatter; no compound was filed as active;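 also: 0% = full activity with enzyme and -100% = basal without enzyme; dose as in the result columns while the protocol names 77 µM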
Target sequence (P06280 whole entry, looked up): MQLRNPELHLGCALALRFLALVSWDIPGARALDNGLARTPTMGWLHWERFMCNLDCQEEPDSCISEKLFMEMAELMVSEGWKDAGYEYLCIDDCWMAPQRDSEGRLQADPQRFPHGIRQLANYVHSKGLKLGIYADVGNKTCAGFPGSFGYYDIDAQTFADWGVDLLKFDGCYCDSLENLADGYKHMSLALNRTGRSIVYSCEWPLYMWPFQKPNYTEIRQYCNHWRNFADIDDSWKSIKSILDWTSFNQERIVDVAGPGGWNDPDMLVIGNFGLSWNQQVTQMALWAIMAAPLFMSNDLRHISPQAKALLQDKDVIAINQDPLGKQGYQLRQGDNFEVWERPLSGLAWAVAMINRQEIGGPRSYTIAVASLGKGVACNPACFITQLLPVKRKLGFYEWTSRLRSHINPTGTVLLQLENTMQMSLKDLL
miR-21 reporter: miR-21 reporter, rising signal | 340,000 tested, under 10 active | HeLa miR-21 FLuc reporter, luciferase, 48 h | Potency, µM (series often up to 38.3 µM), for the others: at the top dose reporter change, positive = more light | AID 2288; active = well fitted rising curve with a large enough effect; inconclusive = small, poorly fitted or top-dose-only effect; inactive = no such curve, though single readings can be large or run the other way;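 also: % of control where 0% means no effect; miR-21 action dims this reporter so a rising signal means less miR-21 action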
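Luminescence from a firefly luciferase reporter carrying a miR-21 binding site downstream, stably expressed under a CMV promoter in HeLa cells that make miR-21 endogenously, reports miRNA modulation after 48 h compound exposure up to approximately 40uM final.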
Rango complex inh: Rango-importin beta binding inhibition; Q14974; Rango CFP/YFP FRET sensor + importin beta, 45 min; Potency, µM (top dose mostly 92.2 µM), for the others: at the highest dose inhibition of complex formation; 0.031% of 340,000 active; AID 540263; active = rising FRET ratio curve, often small or poorly fitted; inconclusive = mostly compound fluorescence or quenching in the first reads; inactive = flat curves in all reads;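 also: potency is read from the fitted curve at half-maximal effect; 0% = DMSO wells and 100% = buffer wells lacking importin beta; nearly all actives have a fitted effect of over 15% in size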
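FRET biosensor Rango (snurportin 1 IBB between N-terminal EYFP and C-terminal Cerulean), 50 nM in PBS/1 mM DTT/0.02% Tween-20/0.1% BSA, preincubated 5 min RT with compound; 0.125 microM importin beta added, 45 min RT, CFP/YFP FRET ratio read.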
An asterisk follows results filed as active; u = inconclusive; x = no result given; & = joins results of further samples.

Results follow in this order: Rango dissoc inh, GLA inh pH 4.5, miR-21 reporter, Rango complex inh
O=C(O)c1cc(NC(=O)c2ccccc2F)cc(NC(=O)c2ccccc2F)c1
→ 12%, x, -3%, -1.1%
Cc1noc(C)c1COc1ccc(C(=O)N2CCN(S(=O)(=O)c3ccc(F)cc3)CC2)cc1
→ 2%, x, x, -1.4%
Cc1nn(-c2ccccn2)c2c1C(c1c(F)cccc1Cl)C1=C(N2)c2ccccc2C1=O (centres undefined)
→ x, 6, -1%, x
O=C(COC(=O)c1ccc(N2CCCC2=O)cc1)c1ccc(OC(F)F)cc1
→ -5%, x, 1%, -3.0%
O=C(NCC1CCCN1S(=O)(=O)c1cccs1)c1cccc(F)c1 (centres undefined)
→ -5%, x, x, -0.8%
O=C(C1CCCCN1S(=O)(=O)c1ccccc1[N+](=O)[O-])N1CCCC1 (centres undefined)
→ 2%, -3, 1%, 3.5%
Cn1nc(-c2ccc(N3CCCCC3)c(NC(=O)c3ccco3)c2)c2ccccc2c1=O
→ -18%, -2, 0%, -1.8%
CC(=O)N1CCOc2ccc(S(=O)(=O)NCCc3ccc(Cl)cc3)cc21
→ 0%, x, 3%, -0.8%
COc1ccc(CCNC(=O)C(=O)NCC2CCCN2S(=O)(=O)c2cccs2)cc1OC (centres undefined)
→ 5%, x, x, 0.1%
CCCCNC(=O)CC1C(=O)N(Cc2ccccc2)C(C)c2nc3ccccc3n21 (centres undefined)
→ -7%, 12, 2%, -4.5%

Gathered by group: the compounds so far with a Cl atom
Results follow in this order: Rango dissoc inh, GLA inh pH 4.5, miR-21 reporter, Rango complex inh
Cc1nn(-c2ccccn2)c2c1C(c1c(F)cccc1Cl)C1=C(N2)c2ccccc2C1=O (centres undefined)
→ x, 6, -1%, x
CC(=O)N1CCOc2ccc(S(=O)(=O)NCCc3ccc(Cl)cc3)cc21
→ 0%, x, 3%, -0.8%

Other compounds:
Results follow in this order: Rango dissoc inh, GLA inh pH 4.5, miR-21 reporter, Rango complex inh
CCOC(=O)CSc1nnc(Cc2ccccc2)n1-c1ccc(C)cc1
→ 9%, -15, -1%, -0.1%
COc1ccc(NC(=O)Cn2cnc3sc(C)c(S(=O)(=O)N4CCOCC4)c3c2=O)c(OC)c1
→ 20%, -13, 0%, 5.9%
COc1ccccc1P(=O)(c1ccccc1)c1ccc([N+](=O)[O-])cc1 (centres undefined)
→ -4%, x, -3%, -0.5%
Oc1nc(Nc2ccccc2)sc1/C=C1\C=Nc2ccccc21
→ u, -1, -60%, u
O=C(COC(=O)c1ccc2c(c1[N+](=O)[O-])C(=O)c1ccccc1C2=O)NC1CC1
→ 5%, -13, -3%, 1.1%
O=C(OCC(=O)N1CCOCC1)C(c1ccccc1)c1ccccc1
→ 4%, 5, -1%, -0.8%
CCOc1cccc2sc(N(CCN(CC)CC)C(=O)c3ccc(S(=O)(=O)N4CCCC4)cc3)nc12
→ -6%, x, -1%, -3.3%
CC(C)(C)NS(=O)(=O)c1ccc(NC(=O)C2CC(=O)N(CCc3ccc(F)cc3)C2)cc1 (centres undefined)
→ 4%, x, 2%, 1.7%
CCCn1nc(C(=O)NCC(C)(C)N2CCOCC2)c2ccccc2c1=O
→ 32%, 13, 0%, 2.3%
Cc1c(N=C/C=C2/N(C)c3ccccc3C2(C)C)c(=O)n(-c2ccccc2)n1C
→ -28%&-24%, -11, -4%, u
O=C(c1c(Cl)nc2sccn12)N(C(=O)c1c(Cl)nc2sccn12)c1ccc(Cl)cn1
→ -8%, -14, -39%, 0.2%
Cc1ccc2c([N+](=O)[O-])cccc2n1
→ 43%, 0, 0%, 0.4%
Cc1cc(Cl)c(OCCn2ccnc2)c(Br)c1
→ 12%, x, 6%, 3.0%
COc1ccc(CNC(=O)C2CCCN(c3ncnc4c3nc3n4CCCCC3)C2)cc1 (centres undefined)
→ 0%, x, -2%, 0.0%
Cc1ccc(CS(=O)Cc2ccc(C(=O)NCC(C)c3ccccc3)o2)cc1 (centres undefined)
→ 5%, x, 3%, 2.1%
O=C(/C=C/NCc1cccnc1)c1ccc(Br)cc1
→ 7%, x, x, -1.1%
N#C/C(=C\c1ccccc1C(F)(F)F)C(=O)Nc1ccccc1
→ -12%, 0, -23%, 1.8%
Cn1c(=O)c2c(SCC(=O)Nc3nccs3)nc(C3CC3)nc2n(C)c1=O
→ -11%, -2, 0%, 0.1%
Cc1cccc(NC(=O)CN2CCN(C(=O)C3CCC3)CC2)c1C
→ -16%, x, x, -0.5%
C/C(=N\NC(=O)c1ccccc1C)c1ccc(N2CCOCC2)cc1
→ 5%, -1, -12%, 0.5%
Cc1sc2ncnc(Sc3nnnn3-c3ccc(Cl)cc3)c2c1C
→ 1%, 2, -8%, -1.4%
Oc1c(Br)cc(Br)cc1C=Nc1cccnc1
→ u, x, 3%, u
CCC(c1nnnn1C1CCCC1)N1CCN(C(=O)c2ccco2)CC1 (centres undefined)
→ 0%, 1, -3%, 3.1%
CCc1ccc(/C=N/Nc2nn[nH]n2)cc1
→ 23%, 5, -2%, 0.6%
CCC1CCCCN1S(=O)(=O)c1ccc(NC(=O)c2snnc2C)cc1 (centres undefined)
→ -1%, x, 24%, -4.1%
NC(=O)C1CCC(NC(=O)OCc2ccccc2)CC1 (centres undefined)
→ -9%, -1, -20%, -1.5%
CC1CCCCC1NC(=O)c1cccc(S(=O)(=O)N2CCN(Cc3ccccc3)CC2)c1 (centres undefined)
→ 10%, x, x, 7.6%
COC(=O)c1ccc(Cn2nc(-c3cc(C)ccc3C)ccc2=O)cc1
→ 14%, x, -4%, -0.1%
Cc1ccc(OCC(O)Cn2c(N3CCOCC3)nc3c2c(=O)[nH]c(=O)n3C)cc1 (centres undefined)
→ -4%, 7, -9%, -3.1%
Cc1ccc(C)c(S(=O)(=O)N2C(=S)NC(=O)C2CC(C)C)c1 (centres undefined)
→ -19%, -11, -1%, -1.7%
NC(=O)[C@@H]1CCCN1Cc1nc(-c2ccc(C(F)(F)F)cc2)no1
→ -17%, 2, -22%, -0.9%
CCOC(=O)C1=C(C)N[C@@]2(O)c3ccccc3C(=O)[C@@]12O
→ -4%, -5, -3%, 7.4%
O=C(O)CCCC(=O)Nc1ccc(S(=O)(=O)Nc2nccs2)cc1
→ -4%, x, 3%, -2.0%
O=S(=O)(c1ccc(Cl)cc1)N1CN(CC2CCCO2)c2nc3ccccc3nc21 (centres undefined)
→ -17%, x, -4%, -4.3%
COc1ccc(NC(=S)N2CCCCCC2)cc1OC
→ -11%, 1, -14%, -1.1%
CCOc1ccc(NC(=O)CN(C)C(=O)c2cccnc2SC)cc1OCC
→ 2%, x, 1%, -2.7%
O=C1[C@@H]2Cc3c([nH]c4ccccc34)C(c3cccc([N+](=O)[O-])c3)N2C(=O)CN1CCCO (some centres undefined)
→ -1%, x, -11%, 3.0%
Cn1c(=O)c2c(nc(NCc3cccnc3)n2Cc2ccccc2Cl)n(C)c1=O
→ 6%, -16, 1%, -8.0%
COc1ccc(C2c3ccc(O)cc3Oc3ncn4nc(-c5ccccn5)nc4c32)cc1OC (centres undefined)
→ u, -8, -17%, u
C=CCOc1ccc(/C=N/NC(=O)C(=O)N2CCCCCC2)cc1OC
→ -9%, x, 1%, 3.6%

3 compounds out of the list above, sorted by the value under GLA inh pH 4.5, high to low.
Results follow in this order: Rango dissoc inh, GLA inh pH 4.5, miR-21 reporter, Rango complex inh
Cc1ccc(OCC(O)Cn2c(N3CCOCC3)nc3c2c(=O)[nH]c(=O)n3C)cc1 (centres undefined)
→ -4%, 7, -9%, -3.1%
Cc1sc2ncnc(Sc3nnnn3-c3ccc(Cl)cc3)c2c1C
→ 1%, 2, -8%, -1.4%
COc1ccc(NC(=S)N2CCCCCC2)cc1OC
→ -11%, 1, -14%, -1.1%

Next part.
Results follow in this order: Rango dissoc inh, GLA inh pH 4.5, miR-21 reporter, Rango complex inh
O=C(COc1ccc(Cl)cc1[N+](=O)[O-])N/N=C/c1cccs1
→ 5%, -8, -11%, 0.9%
CC1CCC(NC(=O)c2cccc(S(=O)(=O)N3CCN(c4ccc(F)cc4)CC3)c2)CC1 (centres undefined)
→ -3%, x, x, -2.3%
Cc1ccc(-n2c(=O)c3ccc(C(=O)NCc4ccco4)cc3n(Cc3ccccc3C#N)c2=O)cc1
→ 2%, -4, -7%&-11%, -1.1%
CCCCCC(O)(c1ccc(OCC)cc1)C(CN1CCOCC1)c1ccccc1 (centres undefined)
→ -6%, x, 12%, 0.3%
CCN(CC)S(=O)(=O)c1ccc(C(=O)OCC(=O)c2ccc3c(c2)NC(=O)CO3)cc1
→ -11%, -4, 1%, 1.0%
Clc1ccc(-c2nnc3ccccn23)cc1
→ -1%, -5, -8%, 3.4%
CCCCC(C(=O)O)C(C)CC(=O)Nc1nccs1 (centres undefined)
→ 19%, 5, 1%, -2.9%
O=C(CN1C(=O)NC2(CCc3ccccc32)C1=O)c1c[nH]c2ccccc12 (centres undefined)
→ 0%, x, x, 2.1%
Cc1c(NC(=O)c2cccnc2C(=O)O)cccc1C(=O)O
→ -4%, 7, 1%, -4.6%
CC(=O)N(c1ccccc1)c1nc(/C=C/C(=O)Nc2c(C)cc(C)cc2C)cs1
→ -15%, 4, -10%, -6.1%
COC(=O)c1sccc1NC(=O)C1CC1
→ 15%, 3, -1%, -0.2%
Cc1nnc(N(Cc2ccco2)C(=O)c2ccno2)s1
→ 0%, 4, -6%, -1.2%
COc1ccc(CC(=O)NCc2nc(-c3ccccc3)no2)cc1
→ 0%, 4, -2%, -3.5%
Cc1cccc(N=C(NO)c2nonc2N)c1
→ -3%, -2, -5%, -0.4%
OCCNc1nc(-c2ccccc2)nc2c1oc1ccccc12
→ 24%, 2, 6%, -2.2%
COc1ccc(NC(=O)CC2C(=O)N(CCc3ccccc3)C(=S)N2Cc2cccnc2)cc1 (centres undefined)
→ 1%, -3, 20%, 0.9%
COc1ccc(CCNC(=O)CC(c2ccccc2)c2cc(C)ccc2O)cc1OC (centres undefined)
→ 1%, x, 23%, -2.8%
COc1ccc(-n2ncc3c(N4CCc5ccccc54)ncnc32)cc1
→ 1%, 15, -58%, -0.1%
CC12CCC(O)CC1=CCC1C2CCC2(C)C3=NN=CC3CC12 (centres undefined)
→ -6%, x, x, -0.3%
Cc1ccccc1OCC1Cn2c(nc3c2c(=O)[nH]c(=O)n3C)O1 (centres undefined)
→ -8%, -4, 5%, -6.1%

An excerpt from above, limited to Rango dissoc inh:
canonical_smiles,Rango dissoc inh
O=C(COc1ccc(Cl)cc1[N+](=O)[O-])N/N=C/c1cccs1,5%
CC1CCC(NC(=O)c2cccc(S(=O)(=O)N3CCN(c4ccc(F)cc4)CC3)c2)CC1 (centres undefined),-3%
Cc1ccc(-n2c(=O)c3ccc(C(=O)NCc4ccco4)cc3n(Cc3ccccc3C#N)c2=O)cc1,2%

Next part.
Results follow in this order: Rango dissoc inh, GLA inh pH 4.5, miR-21 reporter, Rango complex inh
O=C(O)c1ccccc1-c1cn2cc(Cl)ccc2n1
→ 1%, 6, -5%, 4.6%
CCn1cc([N+](=O)[O-])c(C(=O)Nc2ccn(Cc3ccccc3)n2)n1
→ 2%, 0, -13%, 0.6%
Clc1cccc(-c2nc(-c3ccccn3)no2)c1
→ 8%, -5, 24%, -0.8%
O=C1c2ccccc2C2(c3ccccc3)N1CCN2C(=O)C(Cl)(Cl)Cl (centres undefined)
→ 20%, x, 9%, 0.7%
CCCC(=O)Nc1cc(S(=O)(=O)N2CCOCC2)ccc1N1CCCCC1
→ -8%, x, x, 0.6%
CCN=c1sc(C(=O)OC)cc(=O)n1CC
→ -4%, 5, -8%, 2.0%
COc1cc(C2C(C#N)=C(N)Oc3n[nH]c(-c4cccs4)c32)cc(OC)c1O (centres undefined)
→ -7%, -1, 0%, u
O=C(CCc1ccc(S(=O)(=O)N2CCOCC2)cc1)Nc1cc(Cl)ccc1N1CCOCC1
→ 5%, 4, 1%, 0.4%
Cc1cc(C)nc(S/C=C/C(=O)c2ccc(F)cc2)n1
→ x, 3, -21%, x
Nc1cc(OC(=O)c2ccccc2Br)nn1S(=O)(=O)c1ccccc1
→ 22%, 4, 3%, -0.7%
CC(C)CCNC(=O)CC1C(=O)N(Cc2ccccc2)C(C)c2nc3ccccc3n21 (centres undefined)
→ -4%, -9, 2%, 2.0%

Compound activity from PubChem.

An excerpt (hit frequency here may not be typical).
